# Vaccinia stage = Vaccinia orthopox stage-specific inhibition; activity change (mCherry), % (test concentration not listed); actives 0.01% (n = 89,000); AID 1053133; Vaccinia-infected cells, mCherry/Venus stage reporter fluorescence; stronger effect = lower value; some inactives read as strong as hits;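 active = mCherry past -33% and 40 or more points under the early reporter, replicates agreeing; inconclusive = past -33% without that gap or agreement; tested in A549 cells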;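 note: scaled between vehicle wells and reference inhibitor wells; 23 nL library stock went into each well; one replicate is shown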
# Vaccinia stage Venus = recorded beside Vaccinia stage, whose call it bears; activity change (Venus), %; measured here: Venus reporter, other viral stage;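 negative = less Venus signal; first of two replicates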
# * hit, by the source's call; ? = inconclusive; · = no result given; & = joins results of further samples.
SMILES,Vaccinia stage,Vaccinia stage Venus
CC=Cc1ccc2n(c1=O)C[C@H]1[C@H](CO)[C@@H](C(=O)N3CCCCC3)N(C(=O)CC)[C@@H]21 (mixture of isomers),7,-5
C[C@@H]1CN([C@@H](C)CO)C(=O)c2c(c3ccccc3n2C)-c2ccccc2CO[C@@H]1CN(C)C(=O)CCN(C)C,?,·
COc1cccc(S(=O)(=O)N[C@H]2CC[C@H](CCNC(=O)Cc3ccncc3)O[C@@H]2CO)c1,3,-2
O=C(NC[C@@H]1[C@H](c2ccccc2)[C@H](CO)N1Cc1ccccn1)C1CC1,1,8
COc1ccccc1S(=O)(=O)N(C)C[C@H]1OCc2cnnn2CCCC(=O)N([C@H](C)CO)C[C@H]1C,-19,-12
C[C@@H]1CN([C@H](C)CO)C(=O)c2cc(NC(=O)Cc3ccccc3)ccc2O[C@@H](C)CCCCO[C@@H]1CN(C)S(=O)(=O)c1ccccc1,-7,-12
C[C@H](CO)N1C[C@H](C)[C@@H](CN(C)Cc2ccc(F)cc2)Oc2cc(C#CC3CC3)ccc2S1(=O)=O,?,·
COc1cccc(NC(=O)N[C@H]2C=C[C@H](CC(=O)N3CCOCC3)O[C@H]2CO)c1,9,4
O=C(NC[C@@H]1[C@H](c2ccccc2)[C@@H](CO)N1Cc1cccnc1)c1ccccn1,15,3
C[C@@H]1CN([C@@H](C)CO)C(=O)c2cc(NC(=O)CCCN(C)C)ccc2O[C@H]1CN(C)Cc1ccccc1,11,7
C[C@H]1CN([C@@H](C)CO)C(=O)c2cc(NC(=O)Cc3ccccc3)ccc2O[C@@H]1CN(C)Cc1ccncc1,18,18
Cc1ccc(-c2ccc3c(c2)O[C@H](CN(C)CC2CC2)[C@H](C)CN([C@@H](C)CO)S3(=O)=O)cc1,?,·

# Reprinted at random: 2 records from the list, in no set order.
SMILES,Vaccinia stage,Vaccinia stage Venus
O=C(NC[C@@H]1[C@H](c2ccccc2)[C@@H](CO)N1Cc1cccnc1)c1ccccn1,15,3
COc1ccccc1S(=O)(=O)N(C)C[C@H]1OCc2cnnn2CCCC(=O)N([C@H](C)CO)C[C@H]1C,-19,-12

# More records follow:
SMILES,Vaccinia stage,Vaccinia stage Venus
O=C(C[C@@H]1C[C@@H]2c3cc(NS(=O)(=O)c4ccccc4)ccc3O[C@@H]2[C@H](CO)O1)NCC(F)(F)F,6,7
CO[C@H](CN(C)Cc1cc(F)ccc1F)[C@@H](C)CN([C@@H](C)CO)S(=O)(=O)c1ccc(C)cc1,-6,2
CN1c2ccc(-c3ccc(F)cc3)cc2[C@@H]2[C@@H](CCN2C(=O)c2cccc(F)c2)[C@@H]1CO,?,·
C[C@H](CO)N1C[C@H](C)[C@@H](CN(C)C(=O)CCC(F)(F)F)OCc2ccccc2-c2c(n(C)c3ccccc23)C1=O,-8,-7
C[C@@H]1CCCCO[C@@H](CN(C)Cc2ccc(Cl)c(Cl)c2)[C@@H](C)CN([C@H](C)CO)C(=O)c2cc(NS(=O)(=O)c3ccc(Cl)cc3)ccc2O1,10,-2
C[C@H]1CN([C@@H](C)CO)C(=O)Cc2cc(NC(=O)NC3CCCCC3)ccc2O[C@@H]1CN(C)C(=O)Nc1ccc(F)cc1,4,0
C[C@H]1CN([C@@H](C)CO)C(=O)Cc2cc(NC(=O)Nc3cccc4ccccc34)ccc2O[C@@H]1CN(C)CC1CC1,-1,0
C[C@@H]1CN([C@@H](C)CO)C(=O)c2cc(C3=CCCCC3)cnc2O[C@H]1CN(C)S(=O)(=O)c1cn(C)cn1,9,12
Cc1ccc(S(=O)(=O)N(C)C[C@@H]2Oc3ccc(NC(=O)C4CCCCC4)cc3C(=O)N([C@H](C)CO)C[C@H]2C)cc1,9,4
Cc1ccc(S(=O)(=O)N(C)C[C@@H]2Oc3c(NC(=O)C4CC4)cccc3C(=O)N([C@@H](C)CO)C[C@H]2C)cc1,5,29
COCC(=O)Nc1ccc2c(c1)OC[C@H](C)N(C(=O)c1ccccc1)C[C@@H](C)[C@H](OC)CN(C)C2=O,6,-1
CCCC#Cc1cnc2c(c1)C(=O)N([C@H](C)CO)C[C@@H](C)[C@H](CN(C)C(=O)Nc1cc(F)ccc1F)O2,0,2
C[C@@H]1CN([C@@H](C)CO)C(=O)c2cc(/C=C/c3ccccc3)cnc2O[C@@H]1CN(C)C(=O)Nc1ccccc1F,-24,-12
C[C@@H]1CN([C@H](C)CO)C(=O)c2cccc(NS(=O)(=O)c3cn(C)cn3)c2O[C@H]1CN(C)C(=O)Nc1ccc(C(F)(F)F)cc1,7,5
C[C@H](CO)N1C[C@H](C)[C@H](CN(C)CC2CCOCC2)Oc2ncc(-c3cncnc3)cc2C1=O,16,4
Cc1ccc(S(=O)(=O)N(C)C[C@H]2Oc3ccc(NC(=O)Nc4cccc5ccccc45)cc3CC(=O)N([C@H](C)CO)C[C@H]2C)cc1,-11,-2
CCCC(=O)Nc1ccc2c(c1)C(=O)N(C)[C@H]1CC[C@@H](CC(=O)NCCc3ccncc3)O[C@@H]1CO2,5,2
CNC[C@H]1Oc2ccc(NC(=O)Cn3cnnn3)cc2CC(=O)N([C@@H](C)CO)C[C@H]1C,11,5
O=C(C[C@H]1CC[C@H]2[C@@H](COC[C@@H](O)CN2Cc2ccccc2)O1)NCCc1ccccc1,-12,-14
CCC(=O)N(C)C[C@H]1Oc2cc(-c3cccc(F)c3)ccc2S(=O)(=O)N([C@@H](C)CO)C[C@H]1C,-5,-12
C[C@H]1CCCCO[C@@H](CN(C)S(=O)(=O)c2ccc(Cl)cc2)[C@@H](C)CN([C@@H](C)CO)C(=O)c2cc(N(C)C)ccc2O1,-22,-10
O=S(=O)(N[C@H]1CC[C@H](CCn2cc(-c3cccc(F)c3)nn2)O[C@H]1CO)c1ccc(Cl)cc1,-3,5
C[C@H](CO)N1C[C@H](C)[C@@H](CN(C)C(=O)CCCN(C)C)OCCCC[C@H](C)Oc2ccc(NS(=O)(=O)c3cccs3)cc2C1=O,22,4
C[C@H]1CN([C@@H](C)CO)C(=O)c2cc(NS(=O)(=O)c3cccs3)ccc2O[C@@H]1CN(C)S(=O)(=O)c1ccc(Cl)cc1,-4,-4
C[C@H]1CCCCO[C@H](CN(C)C(=O)Nc2ccc(F)cc2)[C@@H](C)CN([C@@H](C)CO)C(=O)c2cc(NC(=O)CCCN(C)C)ccc2O1,4,2
C[C@H](CO)N1C[C@H](C)[C@H](CN(C)CC2CC2)Oc2ccc(NC(=O)Cc3ccccc3)cc2C1=O,5,9
CO[C@H]1CN(C)C(=O)c2ccc(NC(=O)NC(C)C)cc2OC[C@@H](C)N(CC2CC2)C[C@@H]1C,4,15
CCCNC(=O)Nc1ccc2c(c1)C(=O)N(C)C[C@H](OC)[C@H](C)CN(Cc1cncnc1)[C@@H](C)CO2,8,9
CC(C)NC(=O)Nc1ccc2c(c1)C(=O)N([C@H](C)CO)C[C@H](C)[C@@H](CN(C)C(=O)Nc1ccc(C(F)(F)F)cc1)OCCCC[C@@H](C)O2,1,0
C[C@@H]1CN([C@@H](C)CO)C(=O)c2cc(NC(=O)c3ccncc3)ccc2O[C@H]1CN(C)Cc1ccc(-c2ccccc2)cc1,4,-3
COc1ccc(-c2ccc(C3[C@H]4CNC[C@@H]3N4Cc3ccc4c(c3)OCO4)cc2)cc1 (stereo partly drawn),-31&-3,-31&1
COc1cccc(S(=O)(=O)N[C@@H]2C=C[C@H](CC(=O)NCc3ccc(F)cc3)O[C@@H]2CO)c1,-9,-7
O=C(Nc1cccc(F)c1)N1CC(=O)N2[C@H](CO)[C@@H](c3ccc(-c4ccc(F)cc4)cc3)[C@@H]2C1,?,·
N#C[C@@H]1[C@H](c2ccc(C3=CCCCC3)cc2)[C@H](CO)N1C(=O)Nc1ccccc1F,-29,-15
COCc1cn(CC[C@@H]2CC[C@@H](NC(=O)c3ccc(F)cc3)[C@H](CO)O2)nn1,12,10
O=C(C[C@@H]1CC[C@H]2[C@@H](COC[C@@H](O)CN2S(=O)(=O)c2ccc(F)cc2)O1)NCC1CC1,12,11

# Full records from above.
# Shown for `N#C[C@@H]1[C@H](c2ccc(C3=CCCCC3)cc2)[C@H](CO)N1C(=O)Nc1ccccc1F` = Vaccinia stage = -29; Vaccinia stage Venus = -15
# Shown for `C[C@@H]1CN([C@@H](C)CO)C(=O)c2cc(NC(=O)c3ccncc3)ccc2O[C@H]1CN(C)Cc1ccc(-c2ccccc2)cc1` = Vaccinia stage = 4; Vaccinia stage Venus = -3
# Shown for `CCCNC(=O)Nc1ccc2c(c1)C(=O)N(C)C[C@H](OC)[C@H](C)CN(Cc1cncnc1)[C@@H](C)CO2` = Vaccinia stage = 8; Vaccinia stage Venus = 9

# The results go on.
SMILES,Vaccinia stage,Vaccinia stage Venus
COCc1cn(CC[C@@H]2CC[C@@H](NC(=O)Cc3cccnc3)[C@H](CO)O2)nn1,11,18
C[C@H](CO)N1C[C@H](C)[C@H](CN(C)C(=O)Nc2ccccc2)Oc2ncc(C#Cc3ccc(F)cc3)cc2C1=O,?,·
C[C@@H]1CN([C@@H](C)CO)C(=O)c2cccc(NC(=O)Nc3ccc4c(c3)OCO4)c2O[C@H]1CN(C)S(C)(=O)=O,31,21
CCC(=O)Nc1ccc2c(c1)C(=O)N(C)C[C@@H](OC)[C@@H](C)CN(C(=O)c1ccccn1)[C@@H](C)CO2,4,9
O=C(C1CCCCC1)N1CC(=O)N2[C@H](CO)[C@H](c3ccc(-c4ccccc4F)cc3)[C@H]2C1,-25,-15
C/C=C/c1ccc([C@H]2[C@@H](CO)N(CCC(F)(F)F)C23CN(C(=O)CC2CC2)C3)cc1,-17,-3
C[C@@H]1CN([C@@H](C)CO)C(=O)c2cc(NC(=O)Nc3cccc4ccccc34)ccc2O[C@@H](C)CCCCO[C@@H]1CN(C)S(=O)(=O)c1cn(C)cn1,48,26
C[C@@H]1CN([C@@H](C)CO)C(=O)c2cc(C#C[C@@H](C)O)cnc2O[C@@H]1CN(C)C(=O)CC1CC1,8,9
CN1c2ccc(-c3ccccc3)cc2[C@H]2[C@H](CCN2C(=O)Cc2cccnc2)[C@@H]1CO,-2,-1
CN1c2ccc(-c3ccccc3F)cc2[C@H]2[C@H](CCN2S(=O)(=O)c2ccc(F)cc2)[C@H]1CO,?,·
COc1ccc(S(=O)(=O)Nc2cccc3c2O[C@H](CN(C)C(=O)NC2CCCCC2)[C@@H](C)CN([C@H](C)CO)C3=O)cc1,-2,-3
Cc1ccc(S(=O)(=O)Nc2cccc3c2O[C@H](CN(C)C(=O)Nc2ccc4c(c2)OCO4)[C@H](C)CN([C@H](C)CO)C3=O)cc1,-12,-6

# Looked up above:
# Value of Cc1ccc(S(=O)(=O)Nc2cccc3c2O[C@H](CN(C)C(=O)Nc2ccc4c(c2)OCO4)[C@H](C)CN([C@H](C)CO)C3=O)cc1 under Vaccinia stage: -12
# Value of CCC(=O)Nc1ccc2c(c1)C(=O)N(C)C[C@@H](OC)[C@@H](C)CN(C(=O)c1ccccn1)[C@@H](C)CO2 under Vaccinia stage: 4
# Value of C[C@@H]1CN([C@@H](C)CO)C(=O)c2cc(NC(=O)Nc3cccc4ccccc34)ccc2O[C@@H](C)CCCCO[C@@H]1CN(C)S(=O)(=O)c1cn(C)cn1 under Vaccinia stage Venus: 26

# Later entries.
SMILES,Vaccinia stage,Vaccinia stage Venus
O=C(O)C[C@H]1C[C@H]2c3cc(NC(=O)CC4CC4)ccc3O[C@H]2[C@H](CO)O1,14,1
COCC(=O)Nc1ccc2c(c1)[C@H]1C[C@@H](CC(=O)NCc3ccncc3)O[C@@H](CO)[C@H]1O2,7,8
CN(C)CC(=O)N[C@@H]1CC[C@@H](CCNC(=O)Nc2ccc(C(F)(F)F)cc2)O[C@H]1CO,3,15
COc1cccc(-c2ccc([C@H]3[C@@H](CO)N4CCCCN(C(=O)c5ccc(F)cc5)C[C@H]34)cc2)c1,?,·
COc1cccc(-c2ccc3c(c2)O[C@H](CN(C)C(=O)C2CCOCC2)[C@@H](C)CN([C@@H](C)CO)S3(=O)=O)c1,11,-2
C[C@@H]1CN([C@H](C)CO)C(=O)c2cc(C#CC3CCCCC3)cnc2O[C@H]1CN(C)S(=O)(=O)c1cccc(F)c1,?,·
C[C@@H]1CN([C@H](C)CO)C(=O)Cc2cc(NC(=O)c3ccncc3)ccc2O[C@H]1CN(C)C(=O)Nc1ccc(F)cc1,16,9
C[C@@H]1CN([C@@H](C)CO)C(=O)c2cccc(NS(=O)(=O)c3ccc(F)cc3)c2O[C@@H]1CN(C)C(=O)Nc1ccc2c(c1)OCO2,11,8
O=C(NCC(F)(F)F)[C@H]1[C@H](CO)[C@H]2Cn3c(ccc(-c4cccnc4)c3=O)[C@@H]1N2Cc1ccccc1,18,12
COc1cccc(NC(=O)N[C@@H]2C=C[C@H](CC(=O)NCc3ccncn3)O[C@H]2CO)c1,-2,9
COc1ccccc1S(=O)(=O)N1CC[C@@H]2[C@@H](CO)Nc3ccc(-c4ccccc4F)cc3[C@@H]21,-25,-16
COc1ccc(NC(=O)N(C)C[C@@H]2Oc3ccc(NC(=O)Nc4ccc(F)cc4)cc3C(=O)N([C@@H](C)CO)C[C@H]2C)cc1,17,8
CO[C@@H]1CN(C)C(=O)c2ccc(NC(C)=O)cc2OC[C@@H](C)N(Cc2cc(-c3ccccc3)on2)C[C@H]1C,-16,-13
C[C@H](CO)N1C[C@H](C)[C@@H](CN(C)C(=O)Nc2ccc3c(c2)OCO3)Oc2ccc(NS(C)(=O)=O)cc2C1=O,31,24
COc1ccccc1-c1ccc2c(c1)O[C@@H](CN(C)C(=O)Nc1cccc(F)c1)[C@H](C)CN([C@H](C)CO)S2(=O)=O,-32&-24,-26&-14
Cc1ccc(S(=O)(=O)N2C[C@H]3O[C@H](CNS(=O)(=O)c4ccccc4C)CC[C@H]32)cc1,-9,-4
C[C@H]1CN([C@@H](C)CO)C(=O)c2cc(-c3cccc(F)c3)cnc2O[C@@H]1CN(C)C(=O)Nc1ccccc1F,4,-3
C[C@@H]1CN([C@@H](C)CO)C(=O)c2cc(NC(=O)Nc3ccc(F)cc3)ccc2O[C@H]1CN(C)Cc1ccccc1,-15,-6
CO[C@H]1CN(C)C(=O)c2cc(NS(C)(=O)=O)ccc2OC[C@H](C)N(C(=O)CC2CC2)C[C@@H]1C,12,8
O=C(O)[C@H]1[C@H](CO)[C@H]2Cn3c(cccc3=O)[C@@H]1N2C(=O)c1ccccc1,24,12

# A portion of the library. The share of hits here may be higher or lower than overall.
